Polio RdRp inh – inhibitors of poliovirus RNA polymerase binding and polymerization; P03300; poliovirus polymerase elongation, fluorescence polarization; hits give low values; % elongation, % (compound at 16.7 µg/mL); 150,000 tested, 0.66% active; AID 588519; in the data active = % elongation below about 90%; note: some results filed as inactive read as strong as hits
MbtI inh – inhibitors of Mycobacterium tuberculosis siderophore enzyme MbtI. 100,000 tested, 0.89% active. P9WFX0. inhibition, %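 (about 17 µg/mL by stock and volumes)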. purified MbtI enzyme, fluorescence intensity read-out. AID 493033;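 active = above 50% in both replicates, above 80% if mildly self-fluorescent; inactive = the rest, strongly fluorescent compounds included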;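 note: 0% = mean of negative and 100% = mean of positive controls; one replicate is shown; some compounds called inactive have numbers as strong as hits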
Mtb MenB inh – blocks the Mycobacterium tuberculosis MenB enzyme; inhibition, %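 (about 12 µg/mL by stock and volumes)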; P9WNP5; MenB enzyme assay, absorbance read-out; some hits fall short of the stated cut; 100,000 tested, 0.43% active; AID 540299;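 active = mean of two replicates above 30%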;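 note: 0% = no compound and 100% = wells with inactive enzyme; the first replicate is given; strong numbers were not always called active; inactives centre near -10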
Target sequence (P9WNP5 whole entry, looked up): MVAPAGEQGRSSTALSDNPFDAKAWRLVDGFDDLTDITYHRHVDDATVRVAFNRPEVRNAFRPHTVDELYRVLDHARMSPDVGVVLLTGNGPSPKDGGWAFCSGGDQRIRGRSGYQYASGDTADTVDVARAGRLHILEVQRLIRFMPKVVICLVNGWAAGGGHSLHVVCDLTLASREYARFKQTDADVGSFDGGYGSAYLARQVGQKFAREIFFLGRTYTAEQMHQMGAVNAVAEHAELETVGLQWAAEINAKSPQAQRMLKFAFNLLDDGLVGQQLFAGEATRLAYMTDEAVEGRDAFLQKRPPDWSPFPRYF
Polio RdRp inh intensity – second read-out of Polio RdRp inh, no call of its own (marks repeat the call); % elongation; measured here: total intensity read-out; formula for this scale not given here;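 total fluorescence in place of polarization; lower means less elongation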
Starred values were filed as active, the others as inactive; . = no result given; & = joins results of further samples. This is a subset, so the mix of outcomes need not match the whole.

1: COc1ccccc1OCC(O)COC(N)=O (stereo not given)
2: N=C(N=C(N)N)N1CCOCC1
3: CN(C)CCCN1c2ccccc2Sc2ccccc21
4: Cc1coc2c1C(=O)C(=O)c1c-2ccc2c1CCCC2(C)C
5: CC(C)Cc1ccc(C(C)C(=O)O)cc1 (stereo not given)
6: CC1=NN(c2ccccc2)C(=O)C1
7: C=CCN1C(=O)C(CC(C)C)NC1=S (stereo not given)
8: CC(=O)NCCCCCC(=O)O
Assay by compound	1	2	3	4	5	6	7	8
Polio RdRp inh	101&101	100	100&102	103&103	100	102&99	102	100
Mtb MenB inh	-8&-1	5	-7&7	-2	1	2	-5	5
MbtI inh	-1&-16	-3	-12&-24	-10	-16	-5	18	-12
Polio RdRp inh intensity	102&101	103	101&101	100&96	102	103&101	103	105

Record cards (already shown).
Cc1coc2c1C(=O)C(=O)c1c-2ccc2c1CCCC2(C)C is listed as Polio RdRp inh: 103&103; Mtb MenB inh: -2; MbtI inh: -10; Polio RdRp inh intensity: 100&96
N=C(N=C(N)N)N1CCOCC1 is listed as Polio RdRp inh: 100; Mtb MenB inh: 5; MbtI inh: -3; Polio RdRp inh intensity: 103
COc1ccccc1OCC(O)COC(N)=O (stereo not given) is listed as Polio RdRp inh: 101&101; Mtb MenB inh: -8&-1; MbtI inh: -1&-16; Polio RdRp inh intensity: 102&101

6 entries picked at random from the list so far, as already listed:
6: CC1=NN(c2ccccc2)C(=O)C1
3: CN(C)CCCN1c2ccccc2Sc2ccccc21
4: Cc1coc2c1C(=O)C(=O)c1c-2ccc2c1CCCC2(C)C
8: CC(=O)NCCCCCC(=O)O
7: C=CCN1C(=O)C(CC(C)C)NC1=S (stereo not given)
5: CC(C)Cc1ccc(C(C)C(=O)O)cc1 (stereo not given)
Assay by compound	6	3	4	8	7	5
Polio RdRp inh	102&99	100&102	103&103	100	102	100
Mtb MenB inh	2	-7&7	-2	5	-5	1
MbtI inh	-5	-12&-24	-10	-12	18	-16
Polio RdRp inh intensity	103&101	101&101	100&96	105	103	102

(continued)
9: CN(C)C/C=C(/c1ccc(Br)cc1)c1cccnc1
10: CN1CCC(=C2c3ccccc3CCc3sccc32)CC1
11: CCCCNC(=O)N1CCc2cc(OC)c(OC)cc2C1c1ccccc1 (stereo not given)
12: c1ccc(Cc2nc(-c3ccncc3)n[nH]2)cc1
13: COc1ccc(CN(CCN(C)C)c2ccccn2)cc1
14: COC(=O)c1cccnc1
15: COc1c(O)cc2c(c1O)C1OC(CO)C(O)C(O)C1OC2=O (stereo not given)
16: O=C(Cn1ccnc1[N+](=O)[O-])NCCO
Assay by compound	9	10	11	12	13	14	15	16
Polio RdRp inh	98	100	97	99	99&102	101	99	102
Mtb MenB inh	7	-13	-38	-1	-2&-21	13	43*	1
MbtI inh	-1	-11	3	0	-21&-26	4	3	1
Polio RdRp inh intensity	101	103	101	102	100&99	102	100	98

17: COc1cc(N)c(Cl)cc1C(=O)NC1CCN(CCCOc2ccc(F)cc2)CC1OC (stereo not given)
18: Cc1onc(-c2ccccc2Cl)c1C(=O)N[C@@H]1C(=O)N2[C@@H]1SC(C)(C)[C@@H]2C(=O)O
19: c1ccc2c(CC3=NCCN3)cccc2c1
20: CC(=O)[C@H]1CC[C@H]2[C@@H]3C[C@H](C)C4=CC(=O)CC[C@]4(C)[C@H]3[C@@H](O)C[C@]12C
21: O=C(O)CCC/C=C\C[C@H]1C(=O)C[C@@H](O)[C@@H]1/C=C/[C@@H](O)CCc1ccccc1
22: C[C@]12CC[C@H]3[C@@H](CCC4=CC(=O)CC[C@@]43C)[C@@H]1CC[C@@H]2C(=O)CO
23: Nc1cc(-c2ccncc2)c[nH]c1=O
24: O=C(O)CN1C(=O)c2cccc3cccc(c23)C1=O
Assay by compound	17	18	19	20	21	22	23	24
Polio RdRp inh	101	100&99	105&101&103	99	102&100	102	100	101&101
Mtb MenB inh	2	-4&8	1&-7	1	5	0	3	-2
MbtI inh	1	11&2	1&-14&-11	-19	-23	-17	8	92
Polio RdRp inh intensity	100	102&98	97&101&101	102	104&103	100	97	101&98

25: O=C(O)[C@@H]1[C@H]2C[C@H]3c4[nH]c5ccccc5c4CCN3C[C@@H]2CC[C@@H]1O
26: CC(C)Cc1ccc([C@H](C)C(=O)O)cc1
27: O=C1NCC2(CCN(CCc3ccccc3)CC2)O1
28: COc1cc2nc(N3CCN(C(=O)C4COc5ccccc5O4)CC3)nc(N)c2cc1OC (stereo not given)
29: COc1nc(C)nc(Cl)c1NC1=NCCN1
30: C1=NC(Cc2cccc3ccccc23)NC1 (stereo not given)
31: NS(=O)(=O)c1cc2c(cc1C(F)(F)F)NC(Cc1ccccc1)NS2(=O)=O (stereo not given)
32: CCCOc1ccccc1-c1nc2n[nH]nc2c(=O)[nH]1
Assay by compound	25	26	27	28	29	30	31	32
Polio RdRp inh	98	99	102&96	100	101	103	100&100	98&99&105
Mtb MenB inh	-5	-8	-3&3	0	-3	-5	-10&5	4&9
MbtI inh	-10	.	1&-10	-364	-12	.	-20&-27	-6&-2&-8
Polio RdRp inh intensity	102	101	104&101	102	101	105	101&104	102&101&103

33: O=C(O)COC(=O)Cc1ccccc1Nc1c(Cl)cccc1Cl
34: CCOC(=O)c1ccc2nc(C(F)(F)F)nc(NCc3ccc(Cl)cc3)c2c1
35: CCC[C@H](N[C@@H](C)C(=O)N1[C@H](C(=O)O)C[C@@H]2CCCC[C@@H]21)C(=O)OCC
36: Nc1nccs1
37: COc1ccc(-c2cc(=O)c3c(O)cc(O[C@@H]4O[C@H](CO[C@H]5O[C@H](C)[C@@H](O)[C@H](O)[C@@H]5O)[C@@H](O)[C@H](O)[C@H]4O)cc3o2)cc1O
38: Cc1nnc(NS(=O)(=O)c2ccc(N)cc2)s1
Assay by compound	33	34	35	36	37	38
Polio RdRp inh	98	101	104	100	98	101&99
Mtb MenB inh	-2	-16	-7	9	-3	-4&4
MbtI inh	4	78	-6	-3	-3	-2&-8
Polio RdRp inh intensity	102	106	104	99	99	100&98
